NPR1 antag – blocks ANP-stimulated signaling of human Npr1 receptor; P16066; HEK293 hNpr1 GloSensor cGMP, ANP-stimulated luminescence; Potency, µM (titrated, usually from 46.3 µM), for the others: at the highest dose activity change, negative = inhibition, most hits filed as inhibitors; 76,000 tested, 1.6% active; AID 1347048; active = well fitted inhibition curve with a large enough effect; inconclusive = small, poorly fitted or top-dose-only effect; inactive = no such curve, though single readings can be large or run the other way;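 further: nearly all actives have a fitted effect of over 60% in size; nearly all hits also lower the signal before the agonist is added; a reference antagonist and vehicle were the controls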
Target sequence (P16066 whole entry, looked up): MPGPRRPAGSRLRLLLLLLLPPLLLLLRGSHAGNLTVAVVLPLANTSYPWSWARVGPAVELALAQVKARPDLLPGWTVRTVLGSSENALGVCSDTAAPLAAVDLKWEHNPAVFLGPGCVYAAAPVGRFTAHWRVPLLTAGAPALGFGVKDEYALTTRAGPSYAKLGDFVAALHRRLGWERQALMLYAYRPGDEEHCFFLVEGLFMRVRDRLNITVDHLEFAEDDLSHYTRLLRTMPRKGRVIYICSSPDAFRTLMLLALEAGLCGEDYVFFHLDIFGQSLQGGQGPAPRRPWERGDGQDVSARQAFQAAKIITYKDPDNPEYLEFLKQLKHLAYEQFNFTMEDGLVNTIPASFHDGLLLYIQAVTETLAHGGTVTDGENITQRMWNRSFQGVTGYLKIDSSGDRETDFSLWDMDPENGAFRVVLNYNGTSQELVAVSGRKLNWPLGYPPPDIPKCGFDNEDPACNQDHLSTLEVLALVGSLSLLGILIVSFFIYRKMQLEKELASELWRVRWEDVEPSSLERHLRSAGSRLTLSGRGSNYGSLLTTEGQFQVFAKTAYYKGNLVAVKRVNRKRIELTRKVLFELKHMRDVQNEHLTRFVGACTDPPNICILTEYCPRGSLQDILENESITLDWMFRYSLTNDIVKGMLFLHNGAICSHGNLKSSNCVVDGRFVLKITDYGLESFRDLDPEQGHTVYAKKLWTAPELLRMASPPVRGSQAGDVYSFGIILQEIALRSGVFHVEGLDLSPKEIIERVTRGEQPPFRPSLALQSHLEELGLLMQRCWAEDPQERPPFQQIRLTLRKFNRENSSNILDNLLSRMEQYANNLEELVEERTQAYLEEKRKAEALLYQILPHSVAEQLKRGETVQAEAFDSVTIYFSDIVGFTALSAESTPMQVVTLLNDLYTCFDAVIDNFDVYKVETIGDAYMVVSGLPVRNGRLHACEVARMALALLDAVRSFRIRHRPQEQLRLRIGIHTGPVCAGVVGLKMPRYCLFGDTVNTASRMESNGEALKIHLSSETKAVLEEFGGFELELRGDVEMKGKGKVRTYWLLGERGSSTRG
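HEK293 cells stably expressing human Npr1 and cGMP GloSensor pGS-40F, loaded 2 h with 2% GloSensor reagent, given compound 30 min at room temperature. Luminescence read before and 20 min after 0.1 nM hNppA.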
Numbers without * were called inactive; ? = inconclusive; [ ] = remark or other dose. On the % scale 0 is the no-effect control and ±100 the full control effect; potency means the concentration at half of the fitted maximal effect. A portion of the library. The share of hits here may be higher or lower than overall.

Start of the data: the first five compounds as a preview:
SMILES	NPR1 antag
Cc1ccc(C2Cn3nnc(C(=O)N4CCC(C(=O)Nc5ccc(Cl)cc5)CC4)c3CO2)cc1 (configuration not stated)	-25.5%
COc1ccc(C(=O)Nc2cccc(-c3nnc4n3CCCC4)c2)c(C)c1	0.9%
CCOc1ccc(C(=O)N2CCN(c3cc(-c4ccc(OC)cc4)[nH]n3)CC2)cc1	-23.4%
O=C1NC(C(=O)N2CCN(c3ncccn3)CC2)CN1Cc1ccccc1 (configuration not stated)	-4.0%
CCN1CCC(N2CCC3(CC2)NCCc2c3[nH]c3ccc(OC)cc23)CC1	2.5%

The list itself (from the top)
SMILES	NPR1 antag
Cc1ccc(C2Cn3nnc(C(=O)N4CCC(C(=O)Nc5ccc(Cl)cc5)CC4)c3CO2)cc1 (configuration not stated)	-25.5%
COc1ccc(C(=O)Nc2cccc(-c3nnc4n3CCCC4)c2)c(C)c1	0.9%
CCOc1ccc(C(=O)N2CCN(c3cc(-c4ccc(OC)cc4)[nH]n3)CC2)cc1	-23.4%
O=C1NC(C(=O)N2CCN(c3ncccn3)CC2)CN1Cc1ccccc1 (configuration not stated)	-4.0%
CCN1CCC(N2CCC3(CC2)NCCc2c3[nH]c3ccc(OC)cc23)CC1	2.5%
Cc1ccc(C(=O)N2CCC(c3n[nH]c(=O)n3Cc3ccc(F)cc3)CC2)s1	-10.7%
CCCCc1ccc(NC(=O)Cn2ccn3nc(-c4ccc(F)cc4)c(CO)c3c2=O)cc1	-4.2%
NC(=O)CCN(Cc1ccccc1)C(=O)C1CCN(C(=O)C2CCCC2)CC1	0.0%
CCNC(=O)N[C@H]1[C@H](O)[C@@H](N2CCC(Cc3ccccc3)CC2)[C@@H]2OC[C@H]1O2	-3.9%[70.6 µM]
COc1cc(=O)n2c(c1C(=O)Nc1ccc(Br)cc1F)CCCC2	-1.0%
COc1cccc(CN[C@@H]2CCC[C@@H](C(=O)NC3CC3)CC(=O)N(C)C2)c1	5.6%[70.6 µM]
Cn1ccc(NC(=O)c2cnc3c(c2)N([S+](=O)([O-])c2cccnc2)CCC3)n1	3.3%[70.6 µM]
COc1cc(Cl)ccc1C(=O)N1CCC2(CC1)NC(=O)N(c1ccccc1)N2	-5.5%
CN1CCC(NC[C@H]2O[C@@H]3C[C@@H](CC(=O)NCc4cnn(C)c4)O[C@@H]3[C@@H]2O)CC1	-0.8%[70.6 µM]
COc1ccccc1C(=O)N1CCC(C(NC(=O)c2cccs2)C(=O)N2CCCCC2)CC1 (configuration not stated)	-5.8%
CC(C)NC(=O)C[C@@H]1c2nc(NC(=O)N3CCOCC3)sc2C[C@@H]2[C@](C)(CO)[C@H](O)CC[C@]21C	6.1%
Cc1ccn(CC(=O)N2C[C@@H](COc3ccccc3)[C@H](C(N)=O)C2)n1	-1.6%
COCC(=O)N1CCN(C)CC1C(=O)N1CCc2nc[nH]c2C1 (configuration not stated)	2.7%
CC1(C(=O)NCc2ccccc2)CCCCC(=O)N1 (configuration not stated)	-10.8%
CCCc1ccc(-c2nc(C3CCOC3)no2)cc1 (configuration not stated)	?
CCn1ncc(CN2CCCCCCN(C)C(=O)[C@@H]3CCC[C@@H]32)c1C	0.9%
COCCOCc1nc(C2CCN(C(=O)c3ccncc3)CC2)no1	5.9%
COCc1nc(C2CCCN(C(=O)CCC3CCCC3)C2)no1 (configuration not stated)	-20.1%
CN1CCN(C(=O)c2cccs2)CC12CCNC(=O)CC2 (configuration not stated)	2.7%
CC1=C[C@@H](CNC(=O)C2CCCCC2)[C@H](C(C)C)C[C@H]1Cc1nc2ccc(F)cc2[nH]1	-26.7%[70.6 µM]
CO[C@H]1C(=O)N(C2CCN(C(=O)c3n[nH]c4ccccc34)CC2)[C@H]1c1ccncc1	3.8%
CN1CC2(CCN(c3nc(-c4ccccc4)no3)CC2)CC(c2ccccc2)C1=O (configuration not stated)	-29.4%
CCCS(=O)(=O)N1CCCCCCNC(=O)[C@@H]2CCC[C@@H]21	-2.3%
Cc1ccc(CN2C(=O)NC3(CCN(C(=O)c4ccncc4)CC3)C2=O)cc1	-0.9%
CC[C@H]1CN(C(=O)c2cccnc2)CC[C@H]1CC(=O)NCc1ccc(OC)c(OC)c1	2.2%[70.6 µM]
COCC(NC(=O)c1cc(S(N)(=O)=O)ccc1F)c1ccnn1C (configuration not stated)	2.4%
O=C(Nc1ccccc1)N1CCCC(c2nn(-c3ccc(Cl)cc3)c(=O)[nH]2)C1 (configuration not stated)	-2.1%
CCCCN1C(=O)c2ccccc2C(C(=O)NC2CC2)C12CCCCC2 (configuration not stated)	0.0%
Cc1ccccc1Oc1ncccc1CNC(=O)c1cnn2ccccc12	1.6%
Cn1cc(C(=O)N2CCC(N(Cc3cccnc3)C3CCOCC3)CC2)cn1	-12.1%
Cn1ccnc1CN1C[C@@H](F)[C@@H](OCc2nc3ccncc3[nH]2)C1	-1.9%[70.6 µM]
COc1ccc(C(=O)NC2CCN(c3ccc(=O)n(C)n3)CC2)c(OC)n1	0.0%
COC(=O)[C@@H]1Cc2c([nH]c3ccccc23)[C@H]2C[C@@H](NCCCn3ccnc3)C[C@@H](c3ccc(F)cc3)N21	-2.0%
C1CC(C2CCN(C3CNC3)CC2)CN1 (configuration not stated)	1.1%
Cc1nc2c(c(=O)[nH]1)CCN(C(=O)CCc1n[nH]c3c1CCCC3)C2	3.0%

The final three records of the section before are carried over, then new ones follow.
SMILES	NPR1 antag
COC(=O)[C@@H]1Cc2c([nH]c3ccccc23)[C@H]2C[C@@H](NCCCn3ccnc3)C[C@@H](c3ccc(F)cc3)N21	-2.0%
C1CC(C2CCN(C3CNC3)CC2)CN1 (configuration not stated)	1.1%
Cc1nc2c(c(=O)[nH]1)CCN(C(=O)CCc1n[nH]c3c1CCCC3)C2	3.0%
COc1ccccc1-c1cnc2n[nH]c(-c3ccccc3)c2n1	-16.6%[70.6 µM]
Cc1ccc2nc(CO[C@H]3CN(Cc4ccc(S(C)(=O)=O)cc4)C[C@H]3F)[nH]c2c1	?
N#Cc1cccc(-c2ccnc(N[C@H]3CO[C@H]4[C@@H]3OC[C@H]4OC(=O)Nc3ccc(Oc4ccccc4)cc3)n2)c1	?
Cc1nnc(-c2cc(-c3ccc(N4CCOCC4)cc3)ccn2)n1Cc1ccccc1	-12.1%[70.6 µM]
O=C(O)c1ccc(NCc2nc3c(n2Cc2ccccc2)C(=O)N(CC2CCOCC2)CCN3)cc1	3.4%
CN1[C@@H](CCC(=O)N2CCc3ccccc32)CNC(=O)[C@@H]2[C@H]1CCN2Cc1cccs1	-26.5%
CNC(=O)[C@@H](c1ccccc1)N1CCC[C@H]1C(=O)NCc1ccncc1	2.0%[70.6 µM]
COC(=O)N1CCCC2(C1)C(=NC1CCCC1)NC(=O)N2c1cc(F)cc(F)c1 (configuration not stated)	-22.4%
COCCNC(=O)[C@@H]1C[C@@H](O)CN1C1CCN(C(=O)C2(c3ccccc3)CC2)CC1	1.8%
CCN(C(=O)CN1C=C(C(=O)OC)C(C)=NS1(=O)=O)c1cccc(C)c1	0.1%
c1ccc(Nc2cc3c(cn2)CN(Cc2ccc4[nH]ccc4c2)CCN3)cc1	-28.0%[70.6 µM]
O=C(NCCc1nccc(-c2ccccc2)n1)[C@H]1CCC[C@H](O)C1	6.1%
CN(C)CC1(O)CCC2(CCN(C(=O)c3[nH]nc4c3COc3ccccc3-4)CC2)CC1	5.6%
CN1c2cccnc2CN(C2CCCCC2)CC[C@H]1CO	1.1%[70.6 µM]
CN1C[C@@H](NS(=O)(=O)c2ccc(C#N)cc2)C[C@H]1c1nc(-c2ccncc2)no1	-1.2%[70.6 µM]
CCN1CCN(c2ccc(C(=O)NCCCc3ccc(OC)cc3)cn2)CC1	-12.9%
Cc1noc([C@@H]2CN(Cc3ccncc3)C[C@H]2CO)n1	-0.4%
Cc1ccc(N2Cc3c(NCCc4ccc(F)cc4)ncnc3N(C)CC2=O)cc1	-0.3%
Cc1ccc(S(=O)(=O)N(C)C2CCCc3ccccc32)cc1 (configuration not stated)	-9.4%[70.6 µM]
NS(=O)(=O)C1CCS(=O)(=O)C1 (configuration not stated)	5.8%
CN1CCC2(C1)CN(Cc1ccccc1)c1ccc(C(=O)NC3CCC3)cc12 (configuration not stated)	-3.7%[70.6 µM]
Cc1nc(C)n2cc[nH]c(=O)c12	1.1%
COc1cccc(OCc2nc(C(=O)N(C)C(C)c3ccon3)co2)c1 (configuration not stated)	5.6%
CN1C(=O)CC(C(=O)O)C12CCN(Cc1noc(C3CCCC3)n1)CC2 (configuration not stated)	-1.6%
O=C1N(Cc2ccc(F)cc2)C[C@H]2CN(Cc3ccccn3)CCN12	-0.4%[70.6 µM]
O=C(COc1ccccc1)N1CCOC[C@H](Oc2ccc(C(F)(F)F)cn2)C1	-3.9%[70.6 µM]
O=C(c1ccc(-c2ccc(N3CCCCCC3)nc2)cc1)N1CCCC1	?
CCCC1=Nc2cc(C(=O)NCCc3ccccc3)ccc2Sc2ccc(C)cc21	-11.7%
CNC(=O)[C@@H]1C[C@H](Oc2cccnc2)CN1C(=O)C(C)C	-10.1%
COC[C@@H]1CN(Cc2cccc(OC)c2OC)C[C@H]1C(=O)NC1CC1	-15.5%

Not a retest: an excerpt of the list.
SMILES	NPR1 antag
Cc1nc(C)n2cc[nH]c(=O)c12	1.1%
COc1cccc(OCc2nc(C(=O)N(C)C(C)c3ccon3)co2)c1 (configuration not stated)	5.6%

The results go on:
SMILES	NPR1 antag
CCC1=C(C(=O)OC)C(c2ccccc2Cl)N2C(CC(=O)NCC3CCCO3)=CSC2=N1 (configuration not stated)	?
COC(=O)[C@H](NC(=O)[C@@H]1[C@@H](NC(=O)Nc2cccc(SC)c2)CCN1C(=O)c1cccn1C)C(C)C	3.3%
Cc1ccc(-c2cc(N3CCCN(C(=O)COc4ccc(F)cc4)CC3)n[nH]2)cc1C	-17.6%
CC(=O)c1ccc(N2CCC(Oc3ccc(C)cc3)(C(=O)O)CC2)nc1	-2.5%
CCCNC(=O)O[C@@H]1CC[C@]2(C)C(CC[C@@H](O)[C@H]2CC(=O)NCc2ccc(OC)cc2)[C@]1(C)CO (some centres not stated)	2.5%
O=C(c1cccc(F)c1)N1CCCC(c2nccn2Cc2cscn2)C1 (configuration not stated)	-4.1%
COC1C(=O)N(c2cccc(F)c2)C12CCN(C(=O)C1CCOCC1)CC2 (configuration not stated)	1.7%
CCn1ccc(C(=O)N2CCCn3ccnc3C2c2cnn(C)c2)n1 (configuration not stated)	-3.7%
COc1cccc(S(=O)(=O)NCCc2noc(-c3cccnc3)n2)c1	-0.1%
Cc1[nH]nc2c1C(c1ccccc1)C(C#N)=C(N)O2 (configuration not stated)	3.2%
CNCc1cn(C[C@H]2O[C@@H](CC(=O)N3CCC[C@@H]3COC)[C@H](O)[C@@H]2O)nn1	-3.1%[70.6 µM]
COC(=O)C1=CN(CC(=O)Nc2ccc(F)cc2)S(=O)(=O)N=C1C	-3.6%
Cc1ccc(S(=O)(=O)N2CCC3(CC2)C(=O)N(CC(=O)NC(C)C)CN3c2ccccc2)cc1	-15.5%
CN(CC1CCN(CCc2cccc(F)c2)CC1)C(=O)c1cn2cccnc2n1	-1.8%
CCC1=C(C(=O)OC)C(c2ccc(C)cc2C)N2C(CC(=O)N3CCC(C)CC3)=CSC2=N1 (configuration not stated)	-18.8%
CN1C[C@H]2CN(Cc3c[nH]c4ccccc34)CCN2C1=O	-5.3%[70.6 µM]
CC(C)NC(=O)C1CN(Cc2ccccc2)C(=O)N1 (configuration not stated)	0.0%[70.6 µM]
Cc1ccc(NC(=O)c2ccc3c(c2)N(C)C2CCCN2C3=O)cc1C (configuration not stated)	-1.1%
CCc1nc(CN(C)C(=O)C2C3C(=O)N(c4ccc(F)cc4)C[C@@]34C=C[C@@H]2O4)no1 (some centres not stated)	2.3%
COCCOC1CCN(C(=O)COc2ccccc2)CC1	3.3%
CC(C)c1nc(C2Cc3ccccc3N2C(=O)C2CC2)no1 (configuration not stated)	1.3%
Cn1cnc([S+](=O)([O-])NC2CCN(C(=O)N3CC4CC(C3)[C@H]3CCCC(=O)N3C4)CC2)c1 (some centres not stated)	2.6%
Cn1c(CNC(=O)c2cccc(C3CCNC3)c2)nc2ccccc21 (configuration not stated)	0.6%
Cc1ccccc1[C@H]1C[C@@H](O)[C@@H](O)[C@@H]1NC(=O)c1nc2ccccc2s1	-10.6%[70.6 µM]
COCCN1C(=O)c2ccccc2C(C(=O)Nc2ccc(OC)c(Cl)c2)C12CCCC2 (configuration not stated)	2.1%
CCCN(CC1CCOC1)C(=O)c1ccc(F)c(Cl)c1 (configuration not stated)	2.8%
O=C(c1ccccc1OC1CCN(C2Cc3ccccc3C2)CC1)N1CCCCC1	0.2%
CCCNC(=O)N1CCC(Cc2nc(-c3ccccc3)n[nH]2)C1 (configuration not stated)	4.7%
C=CCNc1ncnc2c1CCN(C(=O)c1ccccc1OCC)CC2	-3.9%
Cc1ccc(CCCN2CCOc3ccc(C(=O)NCc4ccccc4F)cc3C2)o1	-14.0%
c1ccc(-c2ncn(CC3CCCO3)c2-c2cccc3cnccc23)cc1 (configuration not stated)	-27.6%
O=C(c1cccc(-n2cnnc2)c1)N(Cc1ccc2[nH]ccc2c1)C1CC1	-4.0%
OC(c1nc(Nc2ccc(Cl)cc2)n[nH]1)C1CC1 (configuration not stated)	-23.5%[70.6 µM]
Cc1nn2c(c1-c1ccccc1[S+](C)(=O)[O-])N(C(=O)c1cccc(Cl)c1)CCC2	-28.1%[70.6 µM]
COC1C(=O)N(CC2CC2)C12CCN(S(=O)(=O)c1c(C)nn(C)c1C)CC2 (configuration not stated)	8.5%
O=C(C1CC1)N1CCC(c2noc(-c3cccnc3)n2)C1 (configuration not stated)	-2.1%
